Screening data deposited in PubChem BioAssay by National Center for Advancing Translational Sciences (NCATS).
StopGo FLuc: lowers the firefly signal of an FMDV 2A StopGo reporter. AID 1745856. Potency, µM (top dose mostly 57.5 µM), for the others: top-dose signal change, negative = less light. HEK cells with a luciferase reporter of 2A StopGo recoding. 120,000 tested, 0.23% active; active = well fitted falling curve with a large enough effect; inconclusive = small, poorly fitted or top-dose-only effect; inactive = no such curve, though single readings can be large or run the other way; note: nearly all actives have a fitted effect of over 60% in size; overnight with compound
StopGo RLuc: FMDV 2A StopGo reporter, Renilla signal. HEK cells with a luciferase reporter of 2A StopGo recoding. 120,000 tested, 0.32% active. Potency, µM (titrated, usually from 57.5 µM), for inactives: at the top dose signal change, negative = less light. AID 1745857; active means well fitted falling curve with a large enough effect; inconclusive means small, poorly fitted or top-dose-only effect; inactive means no such curve, though single readings can be large or run the other way; note: nearly all actives have a fitted effect of over 55% in size; overnight with compound
Active calls of the source: *; & = joins results of further samples; [ ] = remark or other dose. % is set by controls: 0 for no effect and ±100 for the full control effect; potency is the fitted concentration of half-maximal effect. An excerpt; the hit share may differ from the screen's.

Screening COc1cccc(S(=O)c2c(C)cc(C)cc2C)c1 (stereo not given) returned StopGo FLuc inconclusive and StopGo RLuc inconclusive.
`COC(=O)c1cnc(NC(=O)Cc2ccc3ccccc3c2)s1` gave StopGo FLuc 363%[activator] and StopGo RLuc 348%[activator].
`CCOC(=O)c1cnc2c(C)cccc2c1Nc1ccc(O)cc1` gave StopGo FLuc -10% and StopGo RLuc 1%.
CCOc1ccc(CCNC(=O)CN2C(=O)c3cccnc3Oc3ccc(C)cc32)cc1OCC was read as StopGo FLuc -10% and StopGo RLuc 2%.
O=C(Nc1ccc2nc(SCC(=O)N3CCOCC3)sc2c1)c1ccc(Br)cc1 was read as StopGo FLuc 2% and StopGo RLuc 7%.
`Nc1ccccc1-c1ccccc1` gave StopGo FLuc 42%[activator] and StopGo RLuc 9%.
For COc1cccc(NC(=O)c2c(C)nn(-c3cccc(C)c3)c2-n2cccc2)c1 the results were StopGo FLuc 15% and StopGo RLuc -6%.
CCOc1ccccc1OCc1nn2c(C)nnc2s1 was read as StopGo FLuc 2% and StopGo RLuc 0%.
`COc1ccc(Cl)cc1NC(=O)C1c2ccccc2Oc2ccccc21` gave StopGo FLuc 2% and StopGo RLuc 1%.
Cc1nn(-c2nc3c(c(=O)n(CCCc4ccccc4)c(=O)n3C)n2C(C)C)c(C)c1C was read as StopGo FLuc -12% and StopGo RLuc -9%.
For CN(C)C(CNC(=O)CCc1ncc(-c2ccccc2F)o1)c1ccco1 (stereo not given) the results were StopGo FLuc 70%[activator] and StopGo RLuc -4%.
Screening O=C(CCc1nc2ccccc2c(=O)[nH]1)N1CCCCC1 returned StopGo FLuc 45%[activator] and StopGo RLuc 15%.
`Cc1cc(C)c2c(=O)cc(C(=O)Nc3nnc(C)s3)oc2c1` gave StopGo FLuc 0% and StopGo RLuc 13%.
Cc1ccc(-c2cc(C(=O)NC3CCCCC3)c3ccccc3n2)cc1 was read as StopGo FLuc 1% and StopGo RLuc 0%.
`COc1cccc(NC(=O)CNC(=O)Cn2c(C)cc3ccccc3c2=O)c1` gave StopGo FLuc -11% and StopGo RLuc -8%.
Screening Cc1cccc(CNC(=O)CCn2ccc3cc(S(=O)(=O)N4CCCC4)ccc32)c1 returned StopGo FLuc -11% and StopGo RLuc 45%[activator].
For CS(=O)(=O)NC1CCN(C(=O)c2cnc3ccccc3n2)CC1 the results were StopGo FLuc 117%[activator] and StopGo RLuc 0%.
CCc1c(C)sc(NC(=O)c2ccncc2)c1C#N was read as StopGo FLuc 0% and StopGo RLuc 11%.
`Cn1cc(CC(=O)NC(C(N)=O)c2ccccc2)c2ccccc21` (stereo not given) gave StopGo FLuc 6% and StopGo RLuc -5%.
CC(C)CC(=O)Nc1ccc2oc(-c3ccc(F)cc3)nc2c1 was read as StopGo FLuc 143%[activator] and StopGo RLuc 16%.
COc1ccc(Cl)cc1N(C)C(=O)c1ccc2c(=O)n3c(nc2c1)CCCCC3 was read as StopGo FLuc 20% and StopGo RLuc 3%.
Cn1c(=O)[nH]c(=O)c2c1nc(SCC(=O)O)n2CCCc1ccccc1 was read as StopGo FLuc 3% and StopGo RLuc -9%.
Screening COc1cc(C2c3c(-c4ccccc4O)n[nH]c3C(=O)N2Cc2ccncc2)cc(OC)c1OC (stereo not given) returned StopGo FLuc 2%&-6% and StopGo RLuc 2%&-10%.
Screening CC(=O)N1CCN(CC(=O)Nc2sc3c(c2C(N)=O)CCC3)CC1 returned StopGo FLuc 10% and StopGo RLuc 5%.

In the list so far, 3 have an NH in an aromatic ring:
Screening O=C(CCc1nc2ccccc2c(=O)[nH]1)N1CCCCC1 returned StopGo FLuc 45%[activator] and StopGo RLuc 15%.
Cn1c(=O)[nH]c(=O)c2c1nc(SCC(=O)O)n2CCCc1ccccc1 was read as StopGo FLuc 3% and StopGo RLuc -9%.
Screening COc1cc(C2c3c(-c4ccccc4O)n[nH]c3C(=O)N2Cc2ccncc2)cc(OC)c1OC (stereo not given) returned StopGo FLuc 2%&-6% and StopGo RLuc 2%&-10%.

(further entries)
For CCOC(=O)c1sc(N2C(=O)c3oc4ccc(C)cc4c(=O)c3C2c2ccccc2F)nc1C (stereo not given) the results were StopGo FLuc -4% and StopGo RLuc 22%.
CCOc1cc(N)c(Cl)cc1C(=O)NCC1CN(Cc2ccc(F)cc2)CCO1 (stereo not given) was read as StopGo FLuc -20%[11.5 µM] and StopGo RLuc -8%.
Screening CC(=O)N1CCN(Cc2csc(-c3ccc(C(F)(F)F)cc3)n2)CC1 returned StopGo FLuc 20µM* and StopGo RLuc 13µM*.
COc1ccccc1NC(=O)CSc1nc2c(=O)[nH]cnc2n1-c1ccc(C)cc1 was read as StopGo FLuc 31%[activator] and StopGo RLuc 64%[activator].
Cc1cc(C)n(-c2nc(-c3ccccc3)cc(=O)n2CC(=O)Nc2ccccc2)n1 was read as StopGo FLuc -3% and StopGo RLuc -5%.
Screening CC/C(=N/NC(=O)C1CC1(c1ccc(C)cc1)c1ccc(C)cc1)c1ccccc1 (stereo not given) returned StopGo FLuc -4% and StopGo RLuc 8%.
`CCN(CC)CCNC(=O)c1cn(CC)c2ccc(S(=O)(=O)N3CCOCC3)cc2c1=O` gave StopGo FLuc 46%[activator] and StopGo RLuc -9%.
For Cc1ccc(Cl)cc1NC(=O)CN1C(=O)COc2ccc(S(=O)(=O)N3CCCCCC3)cc21 the results were StopGo FLuc -12% and StopGo RLuc -6%.
`O=C(CSc1nc2ccccc2s1)Nc1ncccn1` gave StopGo FLuc 0% and StopGo RLuc 23%.
Screening CCN(Cc1ccccc1)C(=O)C1CCN(S(=O)(=O)c2ccc3c(c2)CCCN3C(C)=O)CC1 returned StopGo FLuc -3% and StopGo RLuc -11%.
For CCOC(=O)C1=C(CN2CCN(c3cc(C)ccc3C)CC2)NC(=O)NC1c1ccc(Cl)cc1 (stereo not given) the results were StopGo FLuc inconclusive and StopGo RLuc -7%.
Screening CC(C)c1ccc(S(=O)(=O)c2nnn3c2nc(NC2CCCC2)c2sccc23)cc1 returned StopGo FLuc -18% and StopGo RLuc 21%.
Screening CC(C)(C)c1csc(C2CN(CCC#N)CCO2)n1 (stereo not given) returned StopGo FLuc 18% and StopGo RLuc -8%.
CCCCN(CC)CCNC(=O)c1cc2c(=O)[nH]c3ccccc3c2n1C was read as StopGo FLuc -17% and StopGo RLuc -8%.
Screening N#Cc1ccc(NC(=O)c2cc(-c3cccs3)nc3ccccc23)cc1 returned StopGo FLuc -5% and StopGo RLuc -10%.
`COc1cc(NC(=O)CCCSc2nc(-c3ccco3)cc(C(F)(F)F)n2)cc(OC)c1OC` gave StopGo FLuc -3% and StopGo RLuc -4%.
`CCCCNCc1ccc(-c2ccccc2F)o1` gave StopGo FLuc 0% and StopGo RLuc 13%.
Screening CN(Cc1ccccc1)C(=O)c1cc(=O)[nH]c2ccccc12 returned StopGo FLuc 16% and StopGo RLuc 48%[activator].
CC(C)(C)C(NCC(=O)NC(C)(C#N)C1CC1)c1cccs1 (stereo not given) was read as StopGo FLuc -5% and StopGo RLuc 3%.
CNC(=O)COc1ccc(NC(=O)CCn2nc(-c3ccc(C)cc3)c3ccccc3c2=O)cc1 was read as StopGo FLuc -11% and StopGo RLuc -3%.
CC1(C)C(=O)NC(=O)C(C#N)C1c1ccccc1 (stereo not given) was read as StopGo FLuc 4% and StopGo RLuc 7%.
For COc1cccc(NS(=O)(=O)c2cc3c4c(c2)C(C)C(=O)N4CCC3)c1 (stereo not given) the results were StopGo FLuc -25% and StopGo RLuc -12%.
For COc1cc(S(=O)(=O)Nc2ccc3ccccc3c2)ccc1NC(C)=O the results were StopGo FLuc 0% and StopGo RLuc 220%[activator].
For O=C1CN=C(c2ccccc2)c2cc(Cl)ccc2N1Cc1ccc(Cl)cc1 the results were StopGo FLuc -14% and StopGo RLuc -7%.

Next section, overlapping the part above by five compounds.
CNC(=O)COc1ccc(NC(=O)CCn2nc(-c3ccc(C)cc3)c3ccccc3c2=O)cc1 was read as StopGo FLuc -11% and StopGo RLuc -3%.
CC1(C)C(=O)NC(=O)C(C#N)C1c1ccccc1 (stereo not given) was read as StopGo FLuc 4% and StopGo RLuc 7%.
For COc1cccc(NS(=O)(=O)c2cc3c4c(c2)C(C)C(=O)N4CCC3)c1 (stereo not given) the results were StopGo FLuc -25% and StopGo RLuc -12%.
For COc1cc(S(=O)(=O)Nc2ccc3ccccc3c2)ccc1NC(C)=O the results were StopGo FLuc 0% and StopGo RLuc 220%[activator].
For O=C1CN=C(c2ccccc2)c2cc(Cl)ccc2N1Cc1ccc(Cl)cc1 the results were StopGo FLuc -14% and StopGo RLuc -7%.
`Cc1ccccc1NC(=O)c1sc2c(c1C)C(c1cccnc1)CC(=O)N2` (stereo not given) gave StopGo FLuc 47%[activator] and StopGo RLuc -22%.
COc1ccc2oc(=O)c(-c3nnc(-c4ccc(C)cc4)o3)cc2c1 was read as StopGo FLuc 7% and StopGo RLuc -13%.
`O=C1NC2(CCCC2)C(=O)N1Cc1coc(-c2ccc(Cl)cc2)n1` gave StopGo FLuc -26% and StopGo RLuc inconclusive.
COc1ccc(CN(C(=O)c2cc3ccccc3oc2=O)C2CCS(=O)(=O)C2)cc1 (stereo not given) was read as StopGo FLuc 44%&-5%[activator] and StopGo RLuc -2%&0%.
Screening CCOC(=O)N1CCN(C(=O)C[C@H]2C[C@@]3(C(=O)OC)C(=C[C@H](COCc4ccccc4)O[C@@H]3C)N(Cc3ccc(Cl)cc3Cl)C2=O)CC1 returned StopGo FLuc -16% and StopGo RLuc -13%.
O=C(Cc1ccc(Cl)c(Cl)c1)NCc1cccs1 was read as StopGo FLuc 230%[activator] and StopGo RLuc 40%[activator].
For Cn1nc(-c2ccc(N3CCOCC3)c(NC(=O)COc3ccccc3)c2)c2ccccc2c1=O the results were StopGo FLuc 4% and StopGo RLuc 6%.
Cn1ccc2cc(S(=O)(=O)N3CCCN(C(=O)Nc4ccccc4Br)CC3)ccc21 was read as StopGo FLuc 19% and StopGo RLuc 22%.
O=C(Nc1ccc2c(c1)Cc1ccccc1-2)c1ccc2c(c1)OCO2 was read as StopGo FLuc 50%[activator] and StopGo RLuc -7%.
For CC(C)CCNC(=O)c1cc(-c2ccncc2)nc2ccc(S(=O)(=O)N3CCOCC3)cc12 the results were StopGo FLuc 0% and StopGo RLuc 10%.
`Cc1ccc(S(=O)(=O)N(C)CCc2noc(-c3ccccc3Cl)n2)c2nsnc12` gave StopGo FLuc 9% and StopGo RLuc -1%.
`CCCC(C)NC(=O)COC(=O)CCS(=O)(=O)c1ccc(C)cc1` (stereo not given) gave StopGo FLuc -14% and StopGo RLuc -18%.
For Cc1cccc(NC(=O)Cn2nc(-c3ccco3)ccc2=O)c1C the results were StopGo FLuc 12% and StopGo RLuc -4%.
For Cc1ccc(N2CC(c3nnc(Cc4ccc(F)cc4)o3)CC2=O)cc1 (stereo not given) the results were StopGo FLuc -13% and StopGo RLuc -9%.
Screening CCOc1ccc(S(=O)(=O)Nc2cccc(-c3ccc(N4CCC(C)CC4)nn3)c2)cc1 returned StopGo FLuc 157%[activator] and StopGo RLuc 155%[activator].
COc1cc(/C=C2/NC(=O)NC2=O)ccc1OCc1ccccc1F was read as StopGo FLuc 44%[activator] and StopGo RLuc -6%.
Screening C=CCOC(=O)COc1ccc2c(=O)c(Oc3ccccc3Br)coc2c1 returned StopGo FLuc -3% and StopGo RLuc -10%.
For CC(C)(C#N)c1cc(Cn2cncn2)cc(C(C)(C)C#N)c1 the results were StopGo FLuc -7%[11.5 µM] and StopGo RLuc 5%.
Screening COCCNC(=S)N(C)[C@H]1C[C@H]2c3[nH]c4c(-c5cccc(C)c5)cccc4c3CCN2C[C@H]1[C@H](C)O returned StopGo FLuc -17% and StopGo RLuc -10%.
O=C(O)C1CC=CCC1c1nc2ccccc2s1 (stereo not given) was read as StopGo FLuc -8% and StopGo RLuc 0%.
`CCCCc1ccc(NC(=S)NCCc2ccc(Cl)cc2)cc1` gave StopGo FLuc 20% and StopGo RLuc 32%.
CCOc1ccccc1OC(=O)c1ccc(F)cc1Cl was read as StopGo FLuc 0% and StopGo RLuc 0%.
For COc1ccc(CNC(=O)CCC2N=C3c4ccccc4N=C(SCc4cccc(F)c4)N3C2=O)cc1 (stereo not given) the results were StopGo FLuc 33%[activator] and StopGo RLuc 43%[activator].
Screening Cc1ccc(NC(=O)CN2C(=O)C(C)(C)c3cc(S(=O)(=O)N4CCCCC4)ccc32)cc1F returned StopGo FLuc inconclusive and StopGo RLuc 143%[activator].
Cc1ccc(-c2ccc(=O)n(CC(=O)Nc3cccc(C#N)c3)n2)cc1 was read as StopGo FLuc -18% and StopGo RLuc -5%.
For CC(CNC(=O)c1cc2ccccc2o1)N1CCCC1 (stereo not given) the results were StopGo FLuc -10% and StopGo RLuc -18%.
For Cc1ccc2oc(=O)c(S(=O)(=O)N3CCc4ccccc4C3)cc2c1 the results were StopGo FLuc 1% and StopGo RLuc 5%.
Screening CNC(=O)C(CC(C)C)NC(=O)Cc1nc(-c2cccs2)oc1C (stereo not given) returned StopGo FLuc -14% and StopGo RLuc -16%.
CCc1ccc2occ(CC(=O)Nc3ccc(OC)c(Cl)c3)c2c1 was read as StopGo FLuc 0% and StopGo RLuc 25%.
CC(=O)N(Cc1nc(-c2ccc(C)cc2)no1)C1CCCCC1 was read as StopGo FLuc 9% and StopGo RLuc 11%.
Screening CC(C)Oc1ccc(-c2nc3c(C#N)c[nH]n3c2NC2CCCCC2)cc1 returned StopGo FLuc 102%[activator] and StopGo RLuc 4%.
`O=C(Nc1ccccc1F)c1ccccc1C(F)(F)F` gave StopGo FLuc 8% and StopGo RLuc -2%.
For Cc1ccc(C)c(NC(=O)c2cc(C3CC3)nc3ccccc23)c1 the results were StopGo FLuc -15% and StopGo RLuc -19%.
